SENP6 inh = SENP6 protease inhibitors, primary screen, biochemical, luminescence, uHTS; Sentrin-specific protease 6 (Homo sapiens), Q9GZR1; Recombinant SENP6 catalytic domain, aminoluciferin luminescence; inhibition, % at 10 µM; 1.8% of 330,000 active; AID 2599, 2010;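 active = inhibition above about 50% at the single tested dose, limit read from the data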;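 also: plate controls were DMSO wells with enzyme for no effect and DMSO wells lacking enzyme for full effect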
Target sequence (Q9GZR1 628-1112 limits assumed): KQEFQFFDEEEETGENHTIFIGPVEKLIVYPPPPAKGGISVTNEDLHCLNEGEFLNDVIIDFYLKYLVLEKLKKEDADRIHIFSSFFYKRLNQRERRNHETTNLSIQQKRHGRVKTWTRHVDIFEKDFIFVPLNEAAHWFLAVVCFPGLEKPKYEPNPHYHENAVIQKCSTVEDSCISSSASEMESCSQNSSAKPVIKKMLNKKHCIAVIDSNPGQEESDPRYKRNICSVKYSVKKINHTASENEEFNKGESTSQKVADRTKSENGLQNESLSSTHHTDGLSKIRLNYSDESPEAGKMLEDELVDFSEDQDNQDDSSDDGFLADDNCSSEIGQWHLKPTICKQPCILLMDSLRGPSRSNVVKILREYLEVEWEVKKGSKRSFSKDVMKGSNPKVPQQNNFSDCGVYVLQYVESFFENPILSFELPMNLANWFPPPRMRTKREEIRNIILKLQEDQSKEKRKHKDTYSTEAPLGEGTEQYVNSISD
NR3A LBD binder = binders of NR3A ligand-binding domain, primary screen, biophysical, differential scanning fluorimetry, uHTS; Glutamate receptor ionotropic, NMDA 3A (GRIN3A) ligand-binding domain; NR3A LBD differential scanning fluorimetry, Tm shift; 0% = protein alone, 100% = glycine-bound protein; Tm shift relative to glycine control, % at 25 µM; 2.5% of 340,000 active; AID 1259313, 2017;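 active = melting temperature shift of at least 10% of the positive control shift, at one fixed dose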
SENP8 block = human SENP8 protease inhibitors, primary screen, biochemical, fluorescence, Nedd8 protein substrate, uHTS; Sentrin-specific protease 8 (Homo sapiens), Q96LD8; recombinant SENP8; inhibition, % at 20 µM; 0.64% of 360,000 active; AID 602440, 2012; in the data active = inhibition mostly above about 40%, no sharp cut-off; inactive = mostly below about 27%
hIAP activ = human IAP activators, primary screen, biochemical, luminescence, uHTS | Intestinal-type alkaline phosphatase (Homo sapiens), P09923 | purified human IAP, CDP-Star luminescence, 30 min; active compounds read high; 1 = vehicle-only enzyme, 0 = enzyme-free background | activation factor at 10 µM | 0.16% of 330,000 active;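 active = activation factor of the enzyme at least 2-fold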; also: the source names both 10 and 20 µM as test concentration; values of inactives mirror those of a sister screen read the other way
PfGluPho inh = PfG6PD enzyme inhibitors, primary screen, biochemical, fluorescence intensity, uHTS; glucose-6-phosphate dehydrogenase-6-phosphogluconolactonase (Plasmodium falciparum 3D7); PfGluPho enzyme, NADPH resazurin-diaphorase fluorescence; inhibition, % at 20 µM; 0.78% of 350,000 active;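 active = inhibition reaching at least a set limit at 20 µM in the primary screen, cut at about 59% in these data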;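 also: 0% = DMSO wells with substrate and 100% = DMSO wells lacking glucose-6-phosphate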
ATG4B inh = ATG4B protease inhibitors, primary screen, biochemical, fluorescence, uHTS | ATG4B cleavage of LC3-PLA2, NBD-HPC fluorescence, 1 h | inhibition, % at 8.33 µM | Cysteine protease ATG4B (Homo sapiens), Q9Y4P1 | 0.51% of 340,000 active; in the data active = inhibition above about 40%
Target sequence (Q9Y4P1 whole entry, looked up): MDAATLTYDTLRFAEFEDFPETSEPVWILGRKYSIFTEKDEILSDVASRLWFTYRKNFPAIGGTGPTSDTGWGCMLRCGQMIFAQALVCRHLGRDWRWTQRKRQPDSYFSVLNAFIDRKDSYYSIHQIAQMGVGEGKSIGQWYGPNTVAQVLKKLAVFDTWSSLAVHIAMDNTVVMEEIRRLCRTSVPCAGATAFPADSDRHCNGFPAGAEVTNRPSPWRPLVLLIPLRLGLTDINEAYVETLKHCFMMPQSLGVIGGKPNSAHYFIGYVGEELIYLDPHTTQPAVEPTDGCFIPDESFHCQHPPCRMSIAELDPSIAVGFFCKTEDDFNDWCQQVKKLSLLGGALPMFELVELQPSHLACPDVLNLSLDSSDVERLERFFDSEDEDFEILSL
SENP1 FRET inh = human SENP1 catalytic domain inhibitors, primary screen, biochemical, FRET, uHTS. Sentrin-specific protease 1 (Homo sapiens), Q9P0U3. AID 624204, 2012. inhibition, % at 10 µM. recombinant SENP1 catalytic domain, CyPet-SUMO1-YPet FRET cleavage. 0.21% of 360,000 active;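 active = inhibition at least 30% at 10 µM, raw YFP signal under a set limit, fluorescence ratio 0.5 to 1.5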;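 also: 0% = enzyme with DMSO and 100% = no enzyme wells; some results filed as inactive read as strong as hits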
Target sequence (Q9P0U3 419-644 limits assumed): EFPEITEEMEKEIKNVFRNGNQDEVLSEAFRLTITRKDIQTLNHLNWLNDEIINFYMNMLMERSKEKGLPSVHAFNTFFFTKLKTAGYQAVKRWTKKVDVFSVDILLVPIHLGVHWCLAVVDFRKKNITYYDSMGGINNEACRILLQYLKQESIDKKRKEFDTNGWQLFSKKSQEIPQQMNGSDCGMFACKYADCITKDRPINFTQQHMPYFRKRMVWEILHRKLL
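Material – human SENP1 catalytic domain · Input – SENP1 enzyme, 20 pM final · Compound dosing – single concentration of 10 µM compound, 0.5% DMSO final · Timing – enzyme reaction for 50 min at room temperature, dark · Measured by – FRET fluorescence in CFP and YFP emission channels · Control set – no-enzyme wells low, DMSO-plus-enzyme wells high control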
Active calls of the source: *; · = no result given; & = joins results of further samples. This is a subset; rates above refer to the full screens.

Values in the order: hIAP activ	PfGluPho inh	SENP8 block	ATG4B inh	SENP6 inh	SENP1 FRET inh	NR3A LBD binder
- CCCc1c(O)nc(SC2CC(=O)N(c3ccc(C)c(Cl)c3)C2=O)[nH]c1=O (stereo unspecified)
→ 1.1	-2	8	7	20	0	1
- COc1cccc(OC)c1C(=O)N[C@@H]1C(=O)N2[C@@H]1SC(C)(C)[C@@H]2C(=O)O
→ ·	0	-1	-7	·	3	3
- O=C(NCc1ccc2c(c1)OCO2)C(=O)NCC1OCCN1S(=O)(=O)c1ccccc1 (stereo unspecified)
→ 1.1	10	-2	0	3	-2	0
- Nc1c(SCCC(=O)O)ccc2c1C(=O)c1ccccc1C2=O
→ 0.77	-33	31	2	89*	25	-1
- O=C(NCc1cn(-c2ccccc2)nc1-c1ccccc1)c1cccc([N+](=O)[O-])c1
→ 1.1	19	10	5	-6	-2	2
- Cc1cccc(C(=O)OC2CCN(C)CC2)c1
→ 0.97	3	19	-9	-1	0	-2
- COC(=O)C1=C(C)N(C(C)c2ccccc2)C(=O)C1 (stereo unspecified)
→ 0.82	-2	10	-8	-12	0	4
- CCn1c(CNc2ccc(OC)cc2)nnc1SCC(=O)N1CCCc2ccccc21
→ 0.99	8	34	-12	-12	0	0
- Brc1ccc(CSc2ccc3nnc(-c4cccnc4)n3n2)cc1
→ 0.94	-8	-202	-14	9	2	-2
- C#C[C@]1(O)CC[C@H]2[C@@H]3CCC4=Cc5oncc5C[C@]4(C)[C@H]3CC[C@@]21C
→ 1	7	11	-4	-12	1	0
- Cc1ccc(-c2nc3[nH]c(=O)cc(NC(=O)C(C)C)n3n2)cc1
→ 0.99	4	0	6	-16	-8	0
- CCCCn1c(N)c(N(CC(C)C)C(=O)c2ccc(S(=O)(=O)N3CCCCC3)cc2)c(=O)[nH]c1=O
→ 0.86	2	-27	6	-6	0	1
- Cc1nc(NS(=O)(=O)c2ccccc2)sc1NC(=O)OC(C)C
→ 0.84	-26	6	4	-4	2	-3
- Cn1c(Nn2cnnc2)nc2ccccc21
→ 0.85	4	17	-7	-12	2	-2
- O=C(CCN1C(=O)c2ccccc2C1=O)N1CCN(C2c3ccccc3-c3ccccc32)CC1
→ 1.4	7	12	6	-13	0	-1
- CC(C)COC(=O)Nc1nnc(SCCOc2ccccc2)s1
→ 1.1	-19	25	-16	-3	-2	2
- Cc1c(OCC(=O)OC(C)C)ccc2c3c(c(=O)oc12)CCC3
→ 1.1	-12	-39	-5	3	-10	0
- Cn1c(CCN2CCN(c3ccccc3)CC2)nc2cc(NC(=O)c3ccco3)ccc21
→ 0.87	7	2	-3	-2	0	0
- NCCCC(=O)O
→ 0.98	-3	15	-7	-3	2	3
- CCOC(=O)c1c(C)[nH]c(C)c1S(=O)(=O)NCC1CCN(Cc2ccccc2OC)CC1
→ 1.1	-4	4	-3	-20	-3	3

The list continues:
Values in the order: hIAP activ	PfGluPho inh	SENP8 block	ATG4B inh	SENP6 inh	SENP1 FRET inh	NR3A LBD binder
- COC(=O)C1=C(C(=O)OC)C(c2cc(Cl)ccc2O)c2sc(=O)[nH]c2S1 (stereo unspecified)
→ 1	-7	-3	1	-10	-35	-17
- COc1cccc(-n2c([S-])c(C(=O)Nc3ccc(S(=O)(=O)N4CCOCC4)cc3)[n+]3cc(C(N)=O)ccc23)c1
→ 1.1	21	-426	-8	-5	-23	1
- CCOC(=O)CN1CC23C=CC(O2)C(C(=O)NC2CCCCC2)C3C1=O (stereo unspecified)
→ 1.1	3	10	-8	-3	2	-6
- CN(C)S(=O)(=O)c1cc(C(=O)Nc2ccn(C)n2)c(Cl)cc1Cl
→ 1	-12	19	4	-15	1	0
- CCOc1ccccc1CNC(=O)Cn1ccc2cc(S(=O)(=O)N3CCC(C)CC3)ccc21
→ 1.2	19	-5	-7	13	-1	4
- O=C(Nc1nc2ccc(Cl)cc2s1)C1CCCO1 (stereo unspecified)
→ 0.99	-16	16	-1	28	1	-1
- CCc1ccc(N(CC(=O)NC(C)C)C(=O)CCC(=O)Nc2ccccn2)cc1
→ 1	-5	11	-7	-10	2	-2
- COc1cccc(C(=O)NN/C(C)=C/C(=O)C(F)(F)C(F)(F)C(F)(F)F)c1
→ 1.1	2	26	2	-8	-1	-8
- O=C(CCN1CCN(c2ccccc2)CC1)c1ccc(Cl)cc1
→ 0.96	15	13	1	5	2	1
- Cc1ccc(-c2cc(C(F)F)nc(N3CCOCC3)n2)cc1
→ 1	12	-228	-6	-13	1	4
- COc1ccc([C@H]2CC(=O)C=C(/C=C/c3ccccc3)C2)cc1
→ 0.87	15	16	2	-18	2	0
- CCOc1cc(/C=N/NC(=O)c2cccc(S(=O)(=O)N3CCCC3)c2)ccc1OCC(=O)N(C)C
→ 1	-14	-226	-2	-13	1	1
- CCC(=O)N1CCc2cc(S(=O)(=O)NCCC(=O)N3CCN(c4cccc(C)c4)C(C)C3)ccc21 (stereo unspecified)
→ 1.2	-3	-22	-12	-8	2	0
- Cc1cc(Cl)ccc1C(=O)C1CCCN(C(=O)c2cscn2)C1 (stereo unspecified)
→ 1.1	2	3	-4	22	0	-2
- CC1(C)C([N+](=O)[O-])C(c2ccccc2O)NC(c2ccccc2O)C1[N+](=O)[O-] (stereo unspecified)
→ 1.1	-9	6	-6	-12	1	-5
- COC(=O)c1cc(CSc2nc3ccc(C)cc3[nH]2)oc1C
→ 1.1	61*	20	1	-22	3	2
- C/C(N)=C(/C#N)C(=O)COC(=O)CNC(=O)c1ccc(Cl)cc1Cl
→ 1.3	0	1	0	-10	1	-2
- O=C1CSc2cc(Cl)ccc2N1
→ ·	46	8	-5	·	-1	2
- CCc1nc2ccc(C(=O)N3CCN(c4cc(C)ccc4C)CC3)cc2nc1CC
→ 0.98	10	14	-7	-3	0	-3
- O=S(=O)(Nc1ccc(S(=O)(=O)N2CCCCC2)cc1)c1cccs1
→ 0.95	-21	29	1	-2	1	-3

Next compounds follow:
Values in the order: hIAP activ	PfGluPho inh	SENP8 block	ATG4B inh	SENP6 inh	SENP1 FRET inh	NR3A LBD binder
- O=C(O)CSc1nnc(Cn2c(=O)sc3ccccc32)n1-c1cccc(Cl)c1
→ 0.87	-12	4	-6	-13	0	1
- COc1cc2ccccc2cc1C(=O)Nc1ccc(Cc2ccncc2)cc1
→ 0.95	18	0	14	-15	0	-9
- COc1ccc(CCN(C)C(=O)c2c(C)nn(CC(C)C)c2Cl)cc1OC
→ 0.84	15	2	-3	-5	0	1
- Cc1ccc(CC2CC(=O)N(c3ncccn3)C2=O)cc1 (stereo unspecified)
→ 0.99	7	8	-8	-6	2	2
- O=C(CNC1CCCC1)Nc1ccc(N2CCCCCC2)cc1
→ 0.88	6	19	-12	-7	-1	-1
- O=C(/C=C\c1ccco1)Nc1nc(-c2ccccc2)cs1
→ 0.95	-7	1	6	0	1	-8
- O=c1c2cc(-c3ccccc3)sc2nc2n1N=C(c1cccs1)CS2
→ 0.81	-3	-126	0	73*	-54	1
- CC(C)(C)Cc1nnc(NS(=O)(=O)c2ccc([N+](=O)[O-])cc2)s1
→ 1.1	2	7	-7	-6	-2	-2
- O=C(CCC1CCCN(C(=O)c2cccc(F)c2)C1)N1CCN(c2ccccn2)CC1 (stereo unspecified)
→ 1.1	3	-13	5	5	0	0
- CCn1c2ccccc2c2cc(NC(=O)C(C)C)ccc21
→ 0.99	10	-30	-9	13	4	0
- CC(O)(C(=O)c1ccccc1)c1ccccc1 (stereo unspecified)
→ ·	·	10	·	·	-3	·
- COc1ccc(OCCSc2nnnn2C2CCCCC2)cc1
→ 0.86	10	10	4	-9	1	0
- C/C(=N\NC(=O)CCn1nc(C)cc1C)C(C)(C)C
→ 1.1	3	14	2	10	1	-1
- N#C/C(=C/c1cccnc1)c1ccccc1
→ 1.1	7	2	-3	-16	1	1
- CC(C)CCN1CCN=C1N(C)C
→ 1.1	-4	22	3	-14	3	-1
- Cc1cnc(CN(C)C(=O)c2ccc3oc(Cc4ccccc4)nc3c2)[nH]1
→ 1.2	-14	7	27	-24	1	-7
- COc1ccc(C2=NN(C)C(=NCc3ccccc3)SC2)cc1
→ 0.83	9	6	7	-2	3	4
- O=C(/C=C/c1ccc(O)c(O)c1)O[C@@H]1C[C@](O)(C(=O)O)C[C@@H](O)[C@H]1O
→ 0.91	-22&-9	-40&-35	-1&9	0	-15&-15	1&-3
- Cc1ccccc1CNc1ccc(C(CC(N)=O)NC(=O)c2ccccc2)cc1[N+](=O)[O-] (stereo unspecified)
→ 0.85	2	28	-15	-6	3	-10
- O=C(NC1CCS(=O)(=O)C1)c1c(NC(=O)C2COc3ccccc3O2)sc2c1CCCC2 (stereo unspecified)
→ 0.93	2	-33	-2	-19	2	-1

Full records from above. Order of screens: hIAP activ, PfGluPho inh, SENP8 block, ATG4B inh, SENP6 inh, SENP1 FRET inh, NR3A LBD binder
Profile of O=C(/C=C/c1ccc(O)c(O)c1)O[C@@H]1C[C@](O)(C(=O)O)C[C@@H](O)[C@H]1O : 0.91, -22&-9, -40&-35, -1&9, 0, -15&-15, 1&-3
Profile of Cc1ccccc1CNc1ccc(C(CC(N)=O)NC(=O)c2ccccc2)cc1[N+](=O)[O-] (stereo unspecified) : 0.85, 2, 28, -15, -6, 3, -10
Profile of O=C(/C=C\c1ccco1)Nc1nc(-c2ccccc2)cs1 : 0.95, -7, 1, 6, 0, 1, -8
Profile of CC(O)(C(=O)c1ccccc1)c1ccccc1 (stereo unspecified) : ·, ·, 10, ·, ·, -3, ·

Following part
Values in the order: hIAP activ	PfGluPho inh	SENP8 block	ATG4B inh	SENP6 inh	SENP1 FRET inh	NR3A LBD binder
- O=C(CNC(=O)c1cccc([N+](=O)[O-])c1)OCCCC(=O)c1ccc(F)cc1
→ 1.1	10	6	1	-22	1	2
- CCc1ccc(Cn2nnc(C(=O)NCc3ccccc3OC)c2N)cc1
→ 1	-8	16	1	-5	1	-2
- CC1CCCC(C)N1C(=O)Cn1cc(/C=C2/C(=O)Nc3ccccc32)c2ccccc21 (stereo unspecified)
→ 1.1	10	36	-2	-25	23	-30
- Cc1ccccc1NC(=S)N(CCCN1CCOCC1)Cc1cccnc1
→ 0.87	-9	-1	1	-6	1	1
- CC(=O)c1ccc(NC(=O)NNS(=O)(=O)c2ccc([N+](=O)[O-])cc2)cc1
→ 1.2	-25	16	4	-4	1	1
- CN1CCN(C(=S)c2cn(Cc3ccccc3F)c3ccccc23)CC1
→ 0.92	14	7	-5	-17	2	1
- COc1ccc(NC(=S)Nc2ccccc2)cn1
→ 1	2	7	3	20	-1	2
- Cc1c(C(=O)N2CCCCC2)c(S(=O)(=O)NCCc2ccc(Cl)cc2)c(C)n1C
→ 1.3	-1	27	-8	-10	3	1
- C[C@@H]1C[C@H]2[C@@H]3CCC4=CC(=O)C=C[C@]4(C)[C@@]3(F)[C@@H](O)C[C@]2(C)[C@@]1(O)C(=O)CO
→ 0.97&0.87	-4&9	9&2	0&-6	-6&-9	4&-1	-1&0
- O=C(N/C(=C\c1ccc([N+](=O)[O-])cc1)C(=O)N1CCOCC1)c1ccccc1
→ 1.1	2	-1	-5	-8	-1	-2
- O=C(COC(=O)CCc1ccccc1)Nc1ccc(F)cc1Cl
→ 1	-13	14	-17	10	4	3
- O=C(COc1ccccc1[N+](=O)[O-])Nc1ccc(Br)cc1
→ 1	1	8	11	-32	1	-31
- Cc1ccccc1NC(=O)Nc1ccccc1N1CCCCC1
→ 1.2	6	15	36	-20	-1	-1
- CC(C)(C)C(=O)OCOC(=O)[C@@H]1N2C(=O)[C@@H](N=CN3CCCCCC3)[C@H]2SC1(C)C
→ 0.72	-4	13	2	11	1	0

Screens: PubChem, Sanford-Burnham Center for Chemical Genomics
